Sfp inh – Sfp phosphopantetheinyl transferase inhibition; Q9F4F7; Biochemical Sfp PPTase activity, qHTS; Potency, µM, for the others: max response, negative = inhibition, hits mostly inhibitors; 3.5% of 310,000 active; active means well fitted inhibition curve with a large enough effect; inconclusive means small, poorly fitted or top-dose-only effect, or another doubt; inactive means no such curve, though single readings can be large or run the other way;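 further: the enzyme is Sfp with the accession as filed and its product quenches rhodamine fluorescence; potency means the concentration at half of the fitted maximal effect; 0% = enzyme reaction without inhibitor and -100% = no enzyme wells; top concentration of the series not given in the record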
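Fluorescence-quenching assay with 15 nM Sfp, 5 uM rhodamine-CoA and 12.5 uM BHQ-2-labelled ybbR peptide in pH 7.6 Hepes/MgCl2 buffer. Enzyme was pre-incubated with compound for 15 min at room temperature. Rate was taken from the 30-min fluorescence change (525/598 nm).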
TRPV1 potentiator – enhances activation of the human vanilloid receptor TRPV1; Q8NER1; TRPV1-expressing cells, Fluo-8 calcium influx, capsaicin EC20 potentiation; host cell line not named in the record; control for the full effect not named in the record; potentiation, % at 8.33 µM; 0.02% of 320,000 active; AID 540277; active means potentiation above 80%; inconclusive means 30% to 80%; inactive means below 30%; further: 0% is about no effect
Target sequence (Q8NER1 whole entry, looked up): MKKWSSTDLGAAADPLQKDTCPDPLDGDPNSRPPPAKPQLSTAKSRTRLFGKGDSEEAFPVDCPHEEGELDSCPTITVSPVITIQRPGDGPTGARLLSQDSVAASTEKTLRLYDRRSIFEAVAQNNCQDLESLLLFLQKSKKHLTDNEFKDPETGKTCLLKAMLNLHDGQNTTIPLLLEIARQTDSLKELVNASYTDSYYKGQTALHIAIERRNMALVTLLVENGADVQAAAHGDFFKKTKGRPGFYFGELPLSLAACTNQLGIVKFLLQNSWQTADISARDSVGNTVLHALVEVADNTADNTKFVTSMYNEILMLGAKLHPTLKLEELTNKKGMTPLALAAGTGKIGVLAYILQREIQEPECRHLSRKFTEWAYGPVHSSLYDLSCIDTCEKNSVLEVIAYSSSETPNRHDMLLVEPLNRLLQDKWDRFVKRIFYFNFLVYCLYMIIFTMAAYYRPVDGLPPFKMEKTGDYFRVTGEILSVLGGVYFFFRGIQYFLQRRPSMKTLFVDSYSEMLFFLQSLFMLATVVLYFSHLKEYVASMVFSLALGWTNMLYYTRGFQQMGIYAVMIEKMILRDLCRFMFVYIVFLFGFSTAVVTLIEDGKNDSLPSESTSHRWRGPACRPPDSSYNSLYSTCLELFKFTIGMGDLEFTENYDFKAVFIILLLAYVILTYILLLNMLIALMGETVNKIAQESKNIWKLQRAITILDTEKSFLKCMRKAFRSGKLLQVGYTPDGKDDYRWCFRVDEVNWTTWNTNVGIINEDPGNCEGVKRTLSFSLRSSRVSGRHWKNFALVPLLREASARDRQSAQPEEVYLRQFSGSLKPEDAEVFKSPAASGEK
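TRPV1-expressing cells were cultured overnight at 35.5C and loaded with Fluo-8 calcium dye for 40 to 90 min at room temperature. After a 10 s baseline, compound was added and calcium influx was read kinetically for 3 min (ex 480/em 520 nm).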
gsp agonist – agonists of gsp mutant (McCune-Albright syndrome) | gsp mutant cells, cAMP HTRF, 30 min; control for the full effect not named in the record | Potency, µM (top dose mostly 76.9 µM), inactives show top-dose activation (cAMP increase), actives largely listed as activators | 0.13% of 340,000 active; active = well fitted activation curve with a large enough effect; inconclusive = small, poorly fitted or top-dose-only effect, or another doubt; inactive = no such curve, though single readings can be large or run the other way; cell line not stated here;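 further: phosphodiesterase inhibitor Ro 20-1724 added with compounds to block cAMP breakdown; potency means the concentration at half of the fitted maximal effect; nearly all actives have a fitted effect of over 60% in size; about a fifth of the inactives were tested at one dose only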
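Cells stably selected in G418 were plated at 2000/well, grown 16-24 hr, then given compounds in DMSO with the PDE inhibitor […] (300 uM solution added) for 30 min at 37C; cAMP was read by HTRF.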
Menin-MLL FL inh – menin-MLL binding inhibition, fluorescein peptide | Fluorescence polarization, fluorescein-MLL peptide displacement from menin | FP activity change, % at 61.4 µM | AID 1766 | 290,000 tested, under 10 active; inconclusive = falling polarisation curve, or a change in total fluorescence; inactive = total fluorescence flat and polarisation flat or rising; no compound was filed as active; the % refers to the polarisation; negative = inhibition;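 further: % of control where 0% means no effect; inhibitors lower the polarisation; unlabelled MLL peptide was the positive control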
gsp antag – antagonizes gsp, the McCune-Albright syndrome mutation | gsp-mutant cells, cAMP HTRF, 30 min; control for the full effect not named in the record | Potency, µM (doses to about 76.9 µM), for inactives: top-dose activity change, negative = inhibition, usual class: inhibitors | 0.4% of 340,000 active | AID 624288; active = falling curve of any shape with a large fitted effect; inconclusive = falling curve, mostly with a smaller effect; inactive = flat or rising curve; cell line not stated here;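 further: intracellular cAMP measured with PDE inhibitor Ro 20-1724 present during compound exposure; potency means the concentration at half of the fitted maximal effect; on the % scale 0 is the no-effect control and ±100 the full control effect; nearly all actives have a fitted effect of over 65% in size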
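Cells in G418 medium, seeded 16-24 h, 37C; buffer exchange to DPBS + 1 mM CaCl2, 0.5 mM MgCl2, 0.05% BSA; cpds in DMSO + […] (300 uM stock), 30 min 37C; HTRF cAMP detection.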
ClpP mod – qHTS Assay for Activators of ClpP; purified B. subtilis ClpP, FRET peptide cleavage, 20 min; Potency, µM (top dose mostly 57.5 µM), for inactives: at the top dose activity change, negative = active; ATP-dependent Clp protease proteolytic subunit (Bacillus subtilis (strain 168)), P80244; 1.9% of 340,000 active; active = well fitted falling curve with a large enough effect; inconclusive = small, poorly fitted or top-dose-only effect; inactive = no such curve, though single readings can be large or run the other way; further: potency means the concentration at half of the fitted maximal effect; the source files actives as falling curves though it sought activators and does not explain the sign; nearly all actives have a fitted effect of over 65% in size; many hits overshoot -100%
Target sequence (P80244 whole entry, looked up): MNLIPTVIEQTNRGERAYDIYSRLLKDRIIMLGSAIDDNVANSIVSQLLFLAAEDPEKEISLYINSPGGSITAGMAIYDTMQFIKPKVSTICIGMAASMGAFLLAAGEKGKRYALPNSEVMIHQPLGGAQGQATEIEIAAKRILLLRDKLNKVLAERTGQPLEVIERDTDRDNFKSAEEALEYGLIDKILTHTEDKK
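Buffer: 100 mM Tris/HCl pH8, 100 mM KCl, 0.05% low protease BSA, 2.5% glycerol, 0.01% Tween-20. ClpP 10 microg/mL final; 20 min RT; delta FRET normalized to ADEP and DMSO controls.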
TRPML1 inh – blocks the human TRPML1 channel; Q9GZU1; TRPML1-inducible cells, Ca2+ dye fluorescence, FDSS; hits give low values; inhibition of EC80 agonist-evoked calcium signal; 0.02% of 390,000 active; activity change, negative = inhibition, % (concentration not given with the values); in the data active means activity change below about -50%; inconclusive means about -30% to -50%; inactive means above about -30%;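 further: stimulus is agonist 54-4 at its EC80 concentration; on the % scale 0 is the no-effect control and ±100 the full control effect; compound concentration not given in the record; the text of the record puts the active cut at -80%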
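TRPML1-DL cells, Tet-induced overnight (~16 h, 37 °C) at 1,500 cells/well, were loaded with Ca8 no-wash dye plus quencher for 45-90 min at room temperature. Compounds were pinned during FDSS kinetic reading; agonist 54-4 at EC80 (4 uM final) then added.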
Starred values were filed as active, the others as inactive; ? = inconclusive; · = not tested or not shown; & = joins results of further samples; [ ] = dose if it differs, or a comment.

SMILES	Sfp inh	TRPV1 potentiator	gsp agonist	Menin-MLL FL inh	gsp antag	ClpP mod	TRPML1 inh
Fc1ccc(-c2nnc3ccc(N4CCc5ccccc5C4)nn23)cc1	8%	3	?	3.2	0%	3.6%	-2
Cc1ccc(NC(=O)CCN2CC(C)OC(C)C2)cc1 (stereo not given)	4%	3	1%	-5.6	8%	·	-4
CCCc1ccc(OCC(O)CN2CCN(c3ccccn3)CC2)cc1 (stereo not given)	12%	?	11%	·	13%	-3.9%	-3
COc1ccc(C)cc1N(CC(=O)N1CCCCCC1)S(=O)(=O)c1ccc(C)cc1	11%	-5	-14%	·	-27%	-0.3%	-19
CC(=O)Cc1nsc(NC(=O)C2Cc3ccccc3C(=O)O2)n1 (stereo not given)	12%	4	26%	-6.7	-13%	-0.2%	18
CN1C(CCl)Nc2cc(Cl)c(S(N)(=O)=O)cc2S1(=O)=O (stereo not given)	10%	·	4%	-3.3	-3%	14µM*	15
Cc1ccc(C2(c3noc(CN(C)Cc4cccnc4)n3)CCCC2)cc1	-16%	-10	14%	-2.6	2%	-1.1%	3
CCOc1ccc(N(CC(=O)NC2CCCCC2)C(=O)CNC(=O)c2cccs2)cc1	18%	4	2%[15.4 µM]	4.5	5%	-1.3%	-11
COC(CNC(=O)CNC(=S)N(CCCN1CCOCC1)Cc1cccs1)OC	-6%	-2	-1%[15.4 µM]	-0.3	8%	·	4
O=S(=O)(N/N=C/c1ccc(N2CCOCC2)cc1)c1ccccc1	15%	2	12%[15.4 µM]	?	·	·	17
COc1ccc(CNC(=O)COC(=O)c2ccc(C)c(S(=O)(=O)N3CCOCC3)c2)cc1	·	·	-5%	·	-13%	0.0%	6
O=C(COc1ccccc1-c1ccccc1)N/N=C/c1ccccn1	?	23	1%	-0.2	-7%	-3.9%	51
CCCCN(C(=O)COC(=O)c1ccc(C=O)cc1)c1c(N)n(CCC)c(=O)[nH]c1=O	·	5	?	·	-2%	-1.4%	9
COc1ccc(/C(O)=C2/C(=O)C(=O)N(c3ncccn3)C2c2ccc(C(C)(C)C)cc2)cc1 (stereo not given)	5%	-16	·	3.3	·	·	·
Cc1ccc(-n2c(Cc3cccn3C)nnc2SCC(=O)NC2CCCCC2)cc1	-4%	3	13%	1.7	-5%	17%	34
CC(C)(C)c1ccc(C(=O)NNC(=S)NCC2CCCO2)cc1 (stereo not given)	3%	-3	8%	1.7	8%	2.1%	7
Cc1ccc(C)c(OCCC(=O)OCC(=O)Nc2ccc(C)c(S(=O)(=O)N3CCCCC3)c2)c1	·	10	4%	·	-2%	1.1%	2
COc1ccc(N2CCN(C(=O)C3CC(O)CN3S(=O)(=O)c3ccc([N+](=O)[O-])cc3)CC2)cc1 (stereo not given)	4%	6	?	4.4	24%	-3.8%	6
COc1ccc(-n2c(=O)c3ccccc3n(Cc3ccc(F)cc3)c2=O)cc1OC	-4%	18	10%	-2.1	17%	-4.4%	-3
Cc1ccc(-n2nc3c(=O)n(CC(=O)c4ccc(F)cc4)nc(C)c3c2C)cc1	-16%	4	-20%	4.7	-17%	?	3
CCOC(=O)N1CCN(C(=O)C2CCN(S(=O)(=O)c3ccc(OCC)cc3)CC2)CC1	7%	-8	-41%[inhibitor]	-2.4	11%	1.5%	-11
Clc1ccc(-c2nnc(CSc3nnc(-c4cccs4)n3Cc3ccccc3)o2)cc1	-2%	2	11%	1.2	25µM*	-3.6%	19
COC(=O)COc1cccc2c(=O)n(CC(=O)N3CCCc4ccccc43)ccc12	12%	-5	?	-3.1	-6%	0.1%	16
CCC(C)c1ccccc1N1CC(C(=O)NCCC2=CCCCC2)CC1=O (stereo not given)	·	-13	19%	·	4%	0.4%	-1
Cc1cc(Br)ccc1Nc1nc(N)nc(N)c1N=O	·	·	-42%[inhibitor]	·	4%	-2.2%	-18
COc1ccc(NC(=O)c2oc3ccccc3c2NC(=O)C2CC2)cc1OC	-1%	-5	14%[15.4 µM]	-1.7	-5%	-1.4%	9
COc1ccc(NC(=O)c2nc[nH]c2C(=O)N[C@H](C)c2ccccc2)cc1	-2%	0	0%	-2.0	-4%	-5.2%	-8
O=C(O)C1C2C=CC(C2)C1C(=O)NCc1ccoc1 (stereo not given)	-5%	-13	-8%	2.9	2%	1.5%	10
Cn1c(=O)c(-c2ccccc2)nc2ccccc21	16%	-10	15%	-1.0	-1%	25µM*	-3
Cn1c(/C(C#N)=C(\O)c2ccc(Cl)s2)nc2ccccc21	18%	-1	31%	1.6	-26%	0.5%	-6
COc1ccc(C2Nc3ccccc3NC3=C2C(=O)CC(C)(C)C3)c(OC)c1OC (stereo not given)	18%	-17	8%[15.4 µM]	-0.2	4%	0.7%	-23
O=C(C1CC(=O)N(C2CCCC2)C1)N1CCC(Cc2ccccc2)CC1 (stereo not given)	-11%	22	?	-0.9	-26%	-0.3%	2
COC(=O)/C=C\C(=O)Nc1cccc([N+](=O)[O-])c1	3.5µM*	0	-23%	1.2	-3%	0.4%	-15
CON(C)S(=O)(=O)c1cccc(C(=O)Oc2ccc(N(C)S(=O)(=O)c3ccccc3)cc2)c1	17%	9	-7%[15.4 µM]	4.8	2%	·	79
Clc1ccc(-c2cn3c(n2)SCC3)cc1	5%	-11	28%[15.4 µM]	-0.3	-7%	·	-3
C=CCNC(=O)C1CC=CCC1C(=O)O (stereo not given)	5%	23	-45%[inhibitor]	2.3	12%	1.0%	4
S=C(NCCc1ccccc1)N1CCOCC1	5%	-10	6%[15.4 µM]	0.9	0%	18%	-12
CCN1CCN(c2ccc(S(=O)(=O)N3CCOCC3)cc2NC(=O)CCSC)CC1	·	-3	2%	·	4%	-1.2%	8
Oc1c(C=C2N=c3ccccc3=N2)sc(=S)n1-c1ccc(F)cc1	4%&7%	-8	5%	8.3&7.9	7%&-12%	-1.0%	-12&7
CC(C)Oc1ccc(CCC(=O)NNC(=S)NCc2ccccc2)cc1	-1%	-18	18%	-4.6	17%	-2.7%	-13

Record cards, as listed above:
Cn1c(/C(C#N)=C(\O)c2ccc(Cl)s2)nc2ccccc21 across the screens: Sfp inh = 18%; TRPV1 potentiator = -1; gsp agonist = 31%; Menin-MLL FL inh = 1.6; gsp antag = -26%; ClpP mod = 0.5%; TRPML1 inh = -6
Oc1c(C=C2N=c3ccccc3=N2)sc(=S)n1-c1ccc(F)cc1 across the screens: Sfp inh = 4%&7%; TRPV1 potentiator = -8; gsp agonist = 5%; Menin-MLL FL inh = 8.3&7.9; gsp antag = 7%&-12%; ClpP mod = -1.0%; TRPML1 inh = -12&7

More structures
SMILES	Sfp inh	TRPV1 potentiator	gsp agonist	Menin-MLL FL inh	gsp antag	ClpP mod	TRPML1 inh
CCOC(=O)[C@H]1[C@H]2COc3ccc(Cl)cc3[C@@H]2N2C(=O)c3cc(F)c(F)cc3NC(=O)[C@@]12C	·	17	8%	·	-12%	-1.1%	-9
O=c1cc(CO)occ1OCc1ccccc1	23%	-20	-17%	2.2	-2%	-4.6%	-14
COc1ccc(-c2csc(NC(=O)CSCC(=O)Nc3cc(C)on3)n2)cc1	·	0	-63%[inhibitor]	·	-10%	-1.2%	1
O=C1CC(c2ccc(F)cc2)SC(N(c2ccccc2)c2ccccc2)=N1 (stereo not given)	6%	11	-36%[inhibitor]	0.8	-25%	2.5%	47
O=C1CSC(c2ccc(F)cc2)N1c1nnc(C23CC4CC(CC(C4)C2)C3)s1 (stereo not given)	11%	7	·	1.2	·	·	·
COc1c2occc2c(OC)c2c(=O)cc(C(F)(F)F)oc12	7%	-7	5%	1.3	8%	-26%	-3
COc1ccc(CCN2C(=O)c3cccc4cccc(c34)C2=O)cc1OC	12%	-2	?	-1.5	7%	-2.5%	14
CC(C)C(=O)N1CCN(c2ccc(NC(=O)c3ccc([N+](=O)[O-])o3)cc2)CC1	-22%	-9	6%[15.4 µM]	1.6	?	·	4
COC(=O)c1ccc(C2C(C(=O)c3ccc(C)o3)=C(O)C(=O)N2c2cc(C)on2)cc1 (stereo not given)	-5%	12	?	·	-13%	-0.9%	10
O=C(C1CCCN(S(=O)(=O)c2ccccc2)C1)N1CCN(c2ccccc2)CC1 (stereo not given)	-2%	?	-9%	-4.3	-1%	-5.2%	11
CCN(CCn1cccn1)C(=O)CC1C(=O)NCCN1Cc1cccc(OC)c1OC (stereo not given)	?	2	-48%[inhibitor]	2.7	8%	0.9%	-4
Cc1ccccc1NC(=O)NC1(C(=O)NCCCN2CCOCC2)CCCCC1	0%	1	-25%	0.1	2%	0.5%	-14
CCOC(=O)/C(C#N)=C/c1cn(CCOc2ccccc2)c2ccccc12	16%	-1	5%[15.4 µM]	5.4	-9%	·	16
COc1cc(NC(=O)c2ccc(Br)o2)ccc1NC(=O)C(C)C	14%	1	11%	0.5	-3%	2.6%	5
Cc1ccc(-n2c(SCC(=O)Nc3cc(C)on3)nc3ccccc3c2=O)cc1	16%	9	5%	1.1	1%	-1.6%	4
Cc1ccccc1-c1nc(SCc2cccnc2)c2c(=O)n(C)c(=O)n(C)c2n1	10%	-6	8%[15.4 µM]	-2.3	-15%	·	2
O=c1c(-c2ccc(O)cc2)coc2cc(O)ccc12	-5%&13%&12%&-5%&23%	·	·	-2.9&1.6&5.1&-2.1&5.1	-11%	4.6%	21
O=C(O)c1ccccc1C(=O)N1CCN(c2ncccn2)CC1	10%	-8	?	-7.5	8%	·	2
CCN(CC)C(=O)[C@H]1C[C@H](CC(=O)NCCCn2ccnc2)C(=O)N2CCc3c([nH]c4cc(-c5ccco5)ccc34)[C@]12C	·	·	·	·	-6%	4.0%	-15
COc1ccc(Cn2nnc3c(=O)[nH]c(C(=O)NCCc4ccc(F)cc4)nc32)cc1OC	2%	6	23%	2.4	-13%	-2.5%	-6
CN(C(=O)COC(=O)CN1C(=O)C2CC=CCC2C1=O)c1ccccc1 (stereo not given)	·	2	4%	·	0%	?	13
CC(C)(C)C(=O)NN=C1CCC(c2ccccc2)CC1 (stereo not given)	18%	-14	25%	-0.2	-16%	1.4%	-10

Assay outcomes deposited in PubChem by National Center for Advancing Translational Sciences (NCATS).
